# PD-1 reverse act: reversal of PD-1 mediated T-cell inhibition. primary human CD4 T cells, PD-L1 beads, CellTiter-Glo 96 h. activation, % (concentration not given with the values). 29,000 tested, under 10 active;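 active = replicate mean of 50% or more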;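 note: 0% = median vehicle wells and 100% = positive control; 100 nL library stock added to about 50 µL; numbers are from one replicate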
# YB-1 expr inh: YB-1 expression inhibition | delta delta Cp (YB-1 minus CDIP) (concentration not given with the values) | hit rate 0.37% among 30,000 | U2OS, qRT-PCR YB-1 vs CDIP delta delta Cp, 16 h; hits give high values; zero = DMSO, each unit about twofold;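 active = delta delta Cp rounded down to an integer at or above 3, about 3 SD of DMSO wells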;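 note: higher means less YB-1 transcript or more CDIP transcript relative to DMSO; stock transfer was 100 nL into about 100 µL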
# Shh pathway inh: blocks Sonic Hedgehog signaling; Shh-LIGHT2 Gli-luciferase reporter, 30 h; inhibition, % (no concentration beside the values); hit rate 2.1% among 22,000; AID 2313;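 active = replicate mean of 65% or more; inconclusive = mean lower but half the replicates past it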;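 note: pathway switched on by Shh-conditioned medium diluted 1 in 25 in low serum; 100 nL library stock added to about 40 µL; 0% = median of neutral wells and 100% = positive control level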
# MITF inhib: MITF inhibition. inhibition, % (concentration not given with the values). TRPM1 promoter luciferase, luminescence, 24 h. hit rate 0.28% among 37,000;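 active = most replicates at 85% or more, or half of them and the mean; inconclusive = half reach 85% but not the mean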;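 note: human melanocyte line stably carrying TRPM1 promoter luciferase reporter; 0% = vehicle wells and 100% = a positive control; the first replicate is given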
# * marks the source's active call; other numbers are inactive results; u = inconclusive; x = no result given; & = joins results of further samples. These rows are one share of the data. The share of hits here may be higher or lower than overall.
smiles,PD-1 reverse act,YB-1 expr inh,Shh pathway inh,MITF inhib
C[C@H](CO)N1C[C@H](C)[C@H](CN(C)C(=O)Nc2ccc(C(F)(F)F)cc2)Oc2c(NC(=O)Nc3ccc(F)cc3)cccc2C1=O,-2.1,-0.266,8.8,0.8
Cc1ccc(OCC(=O)Nc2cccc(NC(=O)c3ccccc3)c2)cc1C,1.5,x,x,-44.9
C[C@H](CO)N1C[C@H](C)[C@H](CN(C)C)Oc2ccc(NC(=O)C3CCCCC3)cc2C1=O,-1.3,-0.264,-20.5,-1.0
C[C@@H]1CN([C@H](C)CO)C(=O)Cc2cc(NC(=O)CCC(F)(F)F)ccc2O[C@H]1CN(C)CC1CCCCC1,x,-0.372,-27.6,-9.0
CCOc1ccc(Oc2nc(N3CCOCC3)nc(N3CCOCC3)n2)nn1,-0.1,x,x,-28.6
C[C@@H]1CN([C@H](C)CO)C(=O)c2cccc(NC(=O)c3nc4ccccc4s3)c2O[C@@H]1CN(C)C(=O)Nc1ccc2c(c1)OCO2,0.7,-0.508,15.9,0.7
Cc1ccc(-c2nc3cc(Cl)ccc3o2)cc1NC(=O)COc1ccc(Br)cc1,-0.7,x,x,-37.5
CC(C)NC(=O)Nc1ccc2c(c1)C(=O)N([C@H](C)CO)C[C@@H](C)[C@H](CN(C)C(=O)Nc1ccccc1)O2,-0.1,-0.221,x,-10.2
COc1cc2c(cc1OC)C(=O)OC2,x,-0.0668,26.5,-0.6
C[C@H]1CN([C@@H](C)CO)C(=O)Cc2cc(NS(=O)(=O)c3cn(C)cn3)ccc2O[C@H]1CN(C)Cc1ccncc1,1.6,0.305,-13.8,4.5
C[C@@H]1CN([C@H](C)CO)C(=O)c2cccc(NC(=O)c3cnccn3)c2O[C@@H]1CN(C)Cc1ccc(C(F)(F)F)cc1,0.6,0.134,11.4,-17.6
C[C@H](CO)N1C[C@H](C)[C@@H](CN(C)C(=O)Nc2ccc3c(c2)OCO3)Oc2ccc(NC(=O)Cc3ccccc3)cc2C1=O,-1.4,0.024,24.5,-7.3
Cc1ccccc1OCC1CN(CN(CC(C)C)CC(C)C)C(=O)O1 (stereo not drawn),-0.5,-0.0162,-50.4,3.8
C[C@H]1CN([C@@H](C)CO)C(=O)c2cccc(NC(=O)C3CC3)c2O[C@@H]1CN(C)C(=O)Nc1ccc2c(c1)OCO2,0.5,0.698,-20.6,-16.9
C[C@@H]1CN([C@@H](C)CO)C(=O)Cc2cc(NS(=O)(=O)c3ccc(Cl)cc3)ccc2O[C@@H]1CN(C)CC1CC1,x,-0.219,x,3.5
COc1ccc(NC(=O)Nc2ccc3c(c2)CC(=O)N([C@H](C)CO)C[C@@H](C)[C@H](CN(C)Cc2ccccc2)O3)cc1,-0.2,0.0549,22.5,5.7

# Some values from the results shown:
# MITF inhib, COc1cc2c(cc1OC)C(=O)OC2 is entered as -0.6
# MITF inhib, C[C@@H]1CN([C@@H](C)CO)C(=O)Cc2cc(NS(=O)(=O)c3ccc(Cl)cc3)ccc2O[C@@H]1CN(C)CC1CC1 is entered as 3.5
# MITF inhib, C[C@H]1CN([C@@H](C)CO)C(=O)c2cccc(NC(=O)C3CC3)c2O[C@@H]1CN(C)C(=O)Nc1ccc2c(c1)OCO2 is entered as -16.9

# New compounds follow:
smiles,PD-1 reverse act,YB-1 expr inh,Shh pathway inh,MITF inhib
C[C@@H]1CN([C@H](C)CO)C(=O)c2cc(NC(=O)Cn3cnnn3)ccc2O[C@H]1CN(C)C(=O)NC1CCCCC1,0.3,-0.0995,4.7,-7.9
CC1=CC(C)(C)N2C(=O)C(=O)c3cc(OC(=O)CN4C(=O)c5ccccc5C4=O)cc1c32,-7.1,x,x,-29.8
CN(CC(=O)Nc1ccccc1C(C)(C)C)S(=O)(=O)c1ccc(Cl)cc1,-0.2,x,x,18.4
C[C@H](CO)N1C[C@H](C)[C@@H](CN(C)S(=O)(=O)c2ccccc2)Oc2ccc(NC(=O)Nc3ccc(C(F)(F)F)cc3)cc2C1=O,-2.4,0.478,7.9,u
COc1ccc(NC(=O)Nc2ccc3c(c2)C(=O)N([C@H](C)CO)C[C@H](C)[C@H](CN(C)Cc2ccc(C(=O)Nc4ccccc4N)cc2)O3)cc1,1.7,0.0932,x,-4.7
Cc1ccc(S(=O)(=O)N(C)C[C@H]2Oc3ccc(NC(=O)CCN4CCOCC4)cc3CC(=O)N([C@@H](C)CO)C[C@@H]2C)cc1,-1.5,0.23,-26.2,-10.9
C[C@@H]1CN([C@@H](C)CO)C(=O)c2cc(NC(=O)Nc3ccccc3)ccc2O[C@H]1CN(C)S(=O)(=O)c1ccccc1,1.6,0.0401,x,-51.6
C[C@H]1CN([C@@H](C)CO)C(=O)Cc2cc(NS(=O)(=O)c3cn(C)cn3)ccc2O[C@@H]1CN(C)S(=O)(=O)c1cccs1,2.9,0.18,-81.2,-3.6

# Overlap with the part before: 2 compounds; new compounds follow.
smiles,PD-1 reverse act,YB-1 expr inh,Shh pathway inh,MITF inhib
C[C@@H]1CN([C@@H](C)CO)C(=O)c2cc(NC(=O)Nc3ccccc3)ccc2O[C@H]1CN(C)S(=O)(=O)c1ccccc1,1.6,0.0401,x,-51.6
C[C@H]1CN([C@@H](C)CO)C(=O)Cc2cc(NS(=O)(=O)c3cn(C)cn3)ccc2O[C@@H]1CN(C)S(=O)(=O)c1cccs1,2.9,0.18,-81.2,-3.6
C[C@H](CO)N1C[C@H](C)[C@@H](CN(C)Cc2ccc(-c3ccccc3)cc2)Oc2c(NS(=O)(=O)c3cn(C)cn3)cccc2C1=O,-0.7,-0.311,-22.0,-0.2
Cc1ccc(F)c(NC(=O)CSc2nnc(C)s2)c1,0.8,x,x,-4.0
C[C@H]1CN([C@@H](C)CO)C(=O)c2cccc(NC(=O)C3CCCCC3)c2O[C@H]1CN(C)Cc1ccc(Oc2ccccc2)cc1,-0.1,0.302,-24.0,9.5
C[C@@H]1CN([C@H](C)CO)C(=O)c2cc(NC(=O)Nc3ccc4c(c3)OCO4)ccc2O[C@H]1CN(C)C(=O)NC1CCCCC1,2.8,0.57,x,3.0
COc1ccc(CN(C)C[C@@H]2Oc3ccc(NC(=O)Nc4c(C)noc4C)cc3C(=O)N([C@H](C)CO)C[C@@H]2C)cc1,0.2,0.25,5.0,3.0
COc1ccc(-c2nn(C)c(=O)c3ccccc23)cc1CNC(=O)c1ccc([N+](=O)[O-])cc1,-2.2,x,x,7.0
COc1ccc(-c2nnc(SCC(=O)Nc3ccc(Br)c(C)c3C)n2C)cc1,-0.6,x,x,1.1
C[C@H]1CN([C@@H](C)CO)C(=O)Cc2cc(NC(=O)CCC(F)(F)F)ccc2O[C@H]1CN(C)S(=O)(=O)c1cn(C)cn1,2.4,0.139,-15.7,7.4
Cc1nnc(SCc2nc(-c3ccccc3)no2)n1-c1ccccc1,0.7,x,x,-1.5
CCOC(=O)c1c(NC(=S)NC(=O)c2ccc3c(c2)OCCO3)sc(C(=O)OC)c1C,1.2,x,x,0.2
COc1cc(NS(=O)(=O)c2ccc(NC(=O)c3ccccc3)cc2)nc(OC)n1,-0.7,0.16,26.9,-2.8
O=C(O)CCCC=C(c1ccccc1)c1ccccc1,0.0,-1.13,x,12.2
O=C1CCC(=O)N(O)CCCCCNC(=O)CCC(=O)N(O)CCCCNC(=O)CCC(=O)N(O)CCCCN1,x,0.713,20.2,x
CNC[C@H]1Oc2ccc(NC(=O)C3CCCCC3)cc2C(=O)N([C@@H](C)CO)C[C@H]1C,0.6,-0.0871,x,6.2
Cc1ccc(S(=O)(=O)Nc2cccc3c2O[C@H](CN(C)Cc2ccc(-c4ccccc4)cc2)[C@H](C)CN([C@H](C)CO)C3=O)cc1,-0.7,-0.0215,-7.5,2.0
Cc1ccc(S(=O)(=O)Nc2cccc3ccccc23)cc1,-0.7,0.0255,-31.6,52.6
COc1cc2nc(N(C)CCCNC(=O)C3CCCO3)nc(N)c2cc1OC (stereo not drawn),x,-0.295&0.29,-38.9&-43.8,1.0&3.6
CN(CCO)S(=O)(=O)c1cccc(C(=O)O)c1,-1.6,x,x,10.2
Cc1ccc(S(=O)(=O)N(C)C[C@H]2Oc3ccc(NC(=O)Cn4cnnn4)cc3C(=O)N([C@@H](C)CO)C[C@@H]2C)cc1,4.0,0.142,x,-2.2
Cc1cc(C)n2nc(-c3ccc(C(C)(C)C)cc3)cc2n1,-0.8,0.383,-92.6,-5.7
CCN(CC(=O)Nc1cc([N+](=O)[O-])ccc1C)S(=O)(=O)c1ccc(C)cc1,2.2,x,x,14.8
C[C@H]1CN([C@@H](C)CO)C(=O)c2cc(NS(=O)(=O)c3cccs3)ccc2O[C@@H]1CN(C)S(=O)(=O)c1ccc(F)cc1,2.8,-0.303,x,-7.0
C[C@H]1CN([C@@H](C)CO)C(=O)Cc2cc(NS(=O)(=O)c3cn(C)cn3)ccc2O[C@H]1CN(C)Cc1ccc(Oc2ccccc2)cc1,2.9,0.0687,-6.7,-2.9
CC(=O)NC1C(=O)Nc2ccccc2S(=O)(=O)C1c1ccccc1 (stereo not drawn),0.2,-0.382,-27.0,-11.4
C[C@H](CO)N1C[C@H](C)[C@H](CN(C)C(=O)Nc2ccc3c(c2)OCO3)Oc2ccc(NC(=O)Cc3cn(C)c4ccccc34)cc2CC1=O,1.2,0.0698,4.9,7.2
COc1ccc(S(=O)(=O)Nc2ccc3c(c2)C(=O)N([C@@H](C)CO)C[C@@H](C)[C@H](CN(C)S(=O)(=O)c2cccs2)O3)cc1,0.0,0.158,x,-3.7
C[C@@H]1CN([C@H](C)CO)C(=O)c2cc(NC(=O)Nc3cccc4ccccc34)ccc2O[C@H]1CN(C)S(=O)(=O)c1ccccc1,x,-0.101,12.7,-18.4
C[C@@H]1CN([C@H](C)CO)C(=O)c2cccc(NS(=O)(=O)c3cccs3)c2O[C@H]1CN(C)Cc1ccccc1,-2.6,-0.412,30.3,13.7
Cc1nnc(SCC(=O)Nc2cc(C(F)(F)F)ccc2Cl)s1,-1.9,x,x,-21.0
N#CCCCN1C(=O)C(O)(CC(=O)c2ccc3c(c2)OCCO3)c2ccccc21 (stereo not drawn),-3.7,x,x,19.5
Cc1ccc(S(=O)(=O)N(C)C[C@@H]2Oc3c(NC(=O)Nc4c(C)noc4C)cccc3C(=O)N([C@@H](C)CO)C[C@H]2C)cc1,0.5,0.281,-27.6,1.7
COc1cccc(-c2nn(-c3ccccc3)cc2C(=O)n2nnc3ccccc32)c1,-10.0,x,x,47.6
Cn1c(=O)c2c(O)c(C=NCc3ccccc3)c(=O)n(C)c2n(C)c1=O,3.0,-0.162,10.2,-14.4
CC(C)(C)c1cc(NC(=O)CSc2n[nH]c(=O)n2-c2ccc3c(c2)OCCO3)cc(C(C)(C)C)c1,-0.1,-0.321,-42.2,2.0
COc1ccc(CN(C)C[C@H]2Oc3ccc(NC(=O)Cn4cnnn4)cc3C(=O)N([C@H](C)CO)C[C@@H]2C)cc1,x,0.0417,25.3,6.6
CC1O[C@@H](Oc2c(-c3ccc(O)c(O)c3)oc3cc(O)cc(O)c3c2=O)[C@H](O)[C@H](O)[C@H]1O (stereo partly drawn),x,0.476,-12.3,3.1
Cc1noc(C)c1S(=O)(=O)N(C)C[C@@H]1Oc2ccc(NC(=O)C3CCCCC3)cc2CC(=O)N([C@H](C)CO)C[C@H]1C,-0.6,0.133,4.7,-3.0
CCN(CC)c1ccc2c(C)cc(=O)oc2c1,-0.1,0.00894,x,-23.2
COc1ccc(NC(=O)N(C)C[C@@H]2Oc3c(NC(=O)C4CCCCC4)cccc3C(=O)N([C@@H](C)CO)C[C@@H]2C)cc1,2.9,-0.439,19.3,3.7
Cc1ccc(S(=O)(=O)N(C)C[C@H]2Oc3c(NC(=O)C4CCCCC4)cccc3C(=O)N([C@@H](C)CO)C[C@H]2C)cc1,x,-0.281,-7.6,6.4
CCC(C)C(O)(CC(=O)OCc1ccc(O[C@@H]2O[C@H](CO)[C@@H](O)[C@H](O)[C@H]2O)cc1)C(=O)OCc1ccc(O[C@@H]2O[C@H](CO)[C@@H](O)[C@H](O)[C@H]2O)cc1 (stereo partly drawn),-0.1,-0.507,-10.4,12.0
C[C@@H]1CN([C@H](C)CO)C(=O)c2cc(NC(=O)Cc3ccccc3)ccc2O[C@H]1CN(C)Cc1ccc(C(=O)O)cc1,0.8,0.162,-28.8,0.3
C[C@H]1CN([C@@H](C)CO)C(=O)c2cc(NC(=O)Nc3ccc4c(c3)OCO4)ccc2O[C@@H]1CN(C)Cc1ccc2c(c1)OCO2,1.1,-0.097,23.4,1.6
CN(CC(=O)Nc1cccc([N+](=O)[O-])c1)S(=O)(=O)c1ccccc1,2.8,x,x,-9.7
O=C(C(C(=O)N1CCCCC1)C12CC3CC(CC(C3)C1)C2)N1CCCCC1,2.1,-0.768,x,3.0
CCC(C)C(O)C(C)(O)/C=C/C1=CC2=C(Cl)C(=O)C(C)(O)C(OC(C)=O)C2CO1 (stereo not drawn),-1.4,0.478,-10.7,28.3
Nc1nnc(SCC(=O)Nc2ccc(F)c(Cl)c2)n1-c1ccccc1,-0.4,x,x,-12.5
COc1ccc(-c2cc(C(F)(F)F)nc(SCC(=O)N3CCCCCC3)n2)cc1OC,-0.7,-0.873,-12.8,-9.9

# Source: PubChem
